Screening data from PubChem.
ClpP mod: qHTS Assay for Activators of ClpP; AID 651965, 2013; ATP-dependent Clp protease proteolytic subunit (Bacillus subtilis (strain 168)), P80244; 340,000 tested, 1.9% active; Potency, µM (highest dose often 57.5 µM), for the others: at the highest dose activity change, negative = active; purified B. subtilis ClpP, FRET peptide cleavage, 20 min; active = well fitted falling curve with a large enough effect; inconclusive = small, poorly fitted or top-dose-only effect; inactive = no such curve, though single readings can be large or run the other way; note: potency is the fitted concentration of half-maximal effect; the source files actives as falling curves though it sought activators and does not explain the sign; nearly all actives have a fitted effect of over 65% in size; many hits overshoot -100%
Target sequence (P80244 whole entry, looked up): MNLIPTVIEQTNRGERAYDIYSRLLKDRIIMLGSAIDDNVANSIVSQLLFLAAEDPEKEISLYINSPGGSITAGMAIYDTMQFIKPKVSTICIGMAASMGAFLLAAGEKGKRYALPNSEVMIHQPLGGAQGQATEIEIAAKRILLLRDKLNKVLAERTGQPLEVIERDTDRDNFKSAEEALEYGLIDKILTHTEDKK
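Purified B. subtilis ClpP, 10 microg/mL final in Tris/HCl pH8 with KCl, BSA, glycerol and Tween-20, cleaved an Abz/nitrotyrosine-quenched decapeptide. Fluorescence (ex 320, em 430) was read at 0 and 20 min at room temperature. Delta was normalized to 5.8 microM ADEP and DMSO/no-enzyme controls.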
Menin MLL FP FL: qHTS Assay for Inhibitors Targeting the Menin-MLL Interaction in MLL Related Leukemias: Competition With Fluorescein Labeled MLL-derived Peptide; Fluorescence polarization, fluorescein-MLL peptide displacement from menin; 290,000 tested, under 10 active; FP activity change, % at 61.4 µM; AID 1766, 2009; inconclusive = falling polarisation curve, or a change in total fluorescence; inactive = total fluorescence flat and polarisation flat or rising; no compound was filed as active; the % refers to the polarisation; negative = inhibition;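 note: % of control where 0% means no effect; inhibitors lower the polarisation; unlabelled MLL peptide was the positive control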
gsp antag: qHTS for Antagonists of gsp, the Etiologic Mutation Responsible for Fibrous Dysplasia/McCune-Albright Syndrome: qHTS. 340,000 tested, 0.4% active. AID 624288, 2012. Potency, µM (doses to about 76.9 µM), for the others: top-dose activity change, negative = inhibition, actives largely listed as inhibitors. gsp-mutant cells, cAMP HTRF, 30 min; control for the full effect not named in the record; active = falling curve of any shape with a large fitted effect; inconclusive = falling curve, mostly with a smaller effect; inactive = flat or rising curve; cell line not stated here;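 note: intracellular cAMP measured with PDE inhibitor Ro 20-1724 present during compound exposure; potency is the fitted concentration of half-maximal effect; % is set by controls: 0 for no effect and ±100 for the full control effect; nearly all actives have a fitted effect of over 65% in size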
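Measurement of cellular cAMP by homogeneous time-resolved fluorescence following a 30 min compound exposure at 37C. The PDE inhibitor […] was present throughout; the assay buffer was DPBS with 0.05% BSA and 0.005% Tween 20.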
Sfp PPTase inh: qHTS Assay for Inhibitors of Bacillus subtilis Sfp phosphopantetheinyl transferase (PPTase) | 4'-phosphopantetheinyl transferase ffp (Bacillus subtilis), Q9F4F7 | Biochemical Sfp PPTase activity, qHTS | Potency, µM, inactives show max response, negative = inhibition, most hits filed as inhibitors | 310,000 tested, 3.5% active; active = well fitted inhibition curve with a large enough effect; inconclusive = small, poorly fitted or top-dose-only effect, or another doubt; inactive = no such curve, though single readings can be large or run the other way;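 note: the enzyme is Sfp with the accession as filed and its product quenches rhodamine fluorescence; potency is the fitted concentration of half-maximal effect; 0% = enzyme reaction without inhibitor and -100% = no enzyme wells; top concentration of the series not given in the record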
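After 15 min at room temperature with compound, 15 nM Sfp received 5 uM rhodamine-CoA plus 12.5 uM BHQ-2-ybbR (50 mM Hepes pH 7.6, 10 mM MgCl2). Rate came from the fluorescence difference over 30 min, ex 525/em 598 nm.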
TRPV1 PAM: HTS Assay for Compounds that Act as Potentiators of the Vanilloid Receptor 1 | potentiation, % at 8.33 µM | TRPV1-expressing cells, Fluo-8 calcium influx, capsaicin EC20 potentiation; host cell line not named in the record; control for the full effect not named in the record | AID 540277, 2011 | Transient receptor potential cation channel subfamily V member 1 (Homo sapiens), Q8NER1 | 320,000 tested, 0.02% active; active means potentiation above 80%; inconclusive means 30% to 80%; inactive means below 30%; note: 0% is about no effect
Target sequence (Q8NER1 whole entry, looked up): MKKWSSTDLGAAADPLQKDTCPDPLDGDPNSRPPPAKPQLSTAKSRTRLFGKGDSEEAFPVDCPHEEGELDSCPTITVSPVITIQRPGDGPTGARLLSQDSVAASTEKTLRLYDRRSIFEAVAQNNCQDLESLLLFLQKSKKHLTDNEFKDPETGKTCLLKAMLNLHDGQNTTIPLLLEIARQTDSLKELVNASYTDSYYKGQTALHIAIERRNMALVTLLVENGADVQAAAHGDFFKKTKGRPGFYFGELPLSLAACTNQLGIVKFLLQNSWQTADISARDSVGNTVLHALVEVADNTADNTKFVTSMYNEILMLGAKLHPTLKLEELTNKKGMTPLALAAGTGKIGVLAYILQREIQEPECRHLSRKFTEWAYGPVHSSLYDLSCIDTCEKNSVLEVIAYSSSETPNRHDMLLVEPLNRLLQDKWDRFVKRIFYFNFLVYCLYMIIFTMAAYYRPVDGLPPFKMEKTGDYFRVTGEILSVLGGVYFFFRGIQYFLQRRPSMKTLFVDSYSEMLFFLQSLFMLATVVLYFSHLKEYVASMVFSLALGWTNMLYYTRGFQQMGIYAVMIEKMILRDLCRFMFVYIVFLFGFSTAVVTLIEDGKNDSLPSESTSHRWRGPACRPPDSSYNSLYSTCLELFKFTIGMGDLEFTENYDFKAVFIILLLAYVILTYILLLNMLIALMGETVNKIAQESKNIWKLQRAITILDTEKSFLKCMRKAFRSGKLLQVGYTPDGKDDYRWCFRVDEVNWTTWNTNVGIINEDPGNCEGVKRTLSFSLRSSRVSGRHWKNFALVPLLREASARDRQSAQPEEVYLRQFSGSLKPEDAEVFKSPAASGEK
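TRPV1-expressing cells were cultured overnight at 35.5C and loaded with Fluo-8 calcium dye for 40 to 90 min at room temperature. After a 10 s baseline, compound was added and calcium influx was read kinetically for 3 min (ex 480/em 520 nm).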
CtBP-E1A inh: qHTS Assay for Inhibitors of the CtBP/E1A Interaction; CtBP / adenovirus E1A interaction (AlphaScreen); AlphaScreen GST-E1A/His-CtBP binding, 1536-well; active compounds read low; control for the full effect not named in the record; activity change, % (no concentration beside the values); 340,000 tested, 0.49% active; AID 651724, 2012; in the data active means activity change below about -65%; inconclusive means about -30% to -65%; inactive means above about -30%; note: % is set by controls: 0 for no effect and ±100 for the full control effect
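In 5 uL wells, 23 nL compound meets equimolar GST-E1A and His-CtBP (5X stock 125 nM each) for 2 h, 37 °C. Beads (5X, 50 ug/mL) then 1 h, 37 °C, dark.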
gsp agonist: qHTS for Agonist of gsp, the Etiologic Mutation Responsible for Fibrous Dysplasia/McCune-Albright Syndrome: qHTS; gsp mutant cells, cAMP HTRF, 30 min; control for the full effect not named in the record; Potency, µM (titrated, usually from 76.9 µM), for inactives: top-dose activation (cAMP increase), hits mostly activators; 340,000 tested, 0.13% active; AID 624287, 2012; active = well fitted activation curve with a large enough effect; inconclusive = small, poorly fitted or top-dose-only effect, or another doubt; inactive = no such curve, though single readings can be large or run the other way; cell line not stated here;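 note: phosphodiesterase inhibitor Ro 20-1724 added with compounds to block cAMP breakdown; potency is the fitted concentration of half-maximal effect; nearly all actives have a fitted effect of over 60% in size; about a fifth of the inactives were tested at one dose only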
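Cells in DMEM/10% FBS with G418 were pretreated with compounds in DMSO plus […] (300 uM stock) for 30 min at 37C. cAMP was measured by HTRF (cAMP-d2 plus anti-cAMP antibody-K) after 30 min at room temperature.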
Numbers without * were called inactive; ? = inconclusive; · = not tested or not shown; & = joins results of further samples; [ ] = dose if it differs, or a comment.

SMILES	ClpP mod	Menin MLL FP FL	gsp antag	Sfp PPTase inh	TRPV1 PAM	CtBP-E1A inh	gsp agonist
Cc1nn(CC(=O)OCC(=O)Nc2ccccc2[N+](=O)[O-])c(C)c1[N+](=O)[O-]	-0.5%	-0.1	-16%	1%	1	·	25%
Cc1cccc(NC(=O)CN2CCN(C(=O)C3CCN(C(=O)/C=C/c4ccccc4)CC3)CC2)c1C	1.8%	·	-12%	·	7	0	4%
O=C(NCCCn1ccnc1)c1ccc(Br)s1	-1.0%	-2.6	-2%	9%	-18	7	16%
O=C(c1ccc(-c2cc(Cl)ccc2Cl)o1)N1CCOCC1	·	0.4	-4%	6%	-16	-1	12%[15.4 µM]
COc1ccc(NC(=O)CN2C(=O)C(c3ccccc3)=NC23CCCCCC3)cc1	0.6%	5.3	-22%	19%	3	-14	-13%
N#CC1(NC(=O)COC(=O)c2cc([N+](=O)[O-])ccc2N2CCOCC2)CCCCC1	-1.8%	·	10%	·	-13	4	-24%
O=C1CC(N2C(=O)/C(=C/C=C/c3ccccc3)SC2=S)C(=O)N1c1ccccc1 (configuration not stated)	-1.9%	?	7%	-3%	-3	6	-30%
N#CC1=C(N)Oc2cc(N)ccc2C1c1cccnc1 (configuration not stated)	1.4%	2.8	5%	0%	-9	-3	-30%
COC(=O)c1c(NC(=O)c2cnccn2)sc2c1CCC2	-2.2%	3.3	1%	-23%	-11	-18	-18%[15.4 µM]
COc1ccc(NCC(=O)N/N=C/c2c(C)nn(Cc3ccccc3)c2Cl)cc1	-0.9%	-0.1	22%	-12%	-4	-24	-8%
COC(=O)c1ccc(CSc2nc3c(c(=O)n2-c2ccccc2)SCC3)o1	-2.2%	2.8	-3%	2%	-5	-17	-12%
CCOc1cc(CNC2CCCC2)cc(Cl)c1OCc1ccccc1	2.1%	3.2	14%	-24%	3	2	4%
CC1CCc2sc(NC(=O)C3CC(Cl)=CCC3C(=O)O)c(C#N)c2C1 (configuration not stated)	·	-3.5	?	18%	11	-7	18%
CN(C)c1c(F)cc(-c2nn[nH]n2)cc1F	-0.5%	-1.7	-6%	8%	7	·	22%
O=C(Cc1cccc(C(F)(F)F)c1)NCC(c1ccco1)N1CCCCC1 (configuration not stated)	·	-1.9	13%	16%	-2	-3	3%[15.4 µM]
O=c1cccc2n1Cc1cc3ccccc3nc1-2	4.3%	0.8	1%	12%	3	?	28%
O=C1CN(c2nc(-c3ccccc3)c3cc(Br)ccc3n2)c2ccccc2N1	·	13	·	-9%	14	·	·
Clc1ccc(C(c2ccccc2)N2CCNCC2)cc1 (configuration not stated)	1.6%	1.1	10%	10%	17	10	-3%
Cc1cccc(NS(=O)(=O)c2c(C)nc3scc(C)n3c2=O)c1	-4.8%	·	-4%	6%	-19	-9	-7%
COC(=O)c1ccc(OCCn2cnc3ccccc3c2=O)cc1	-0.3%	0.0	-13%	13%	29	2	-3%
Cc1cc(C)n(CC(O)COc2ccc3ccccc3c2)n1 (configuration not stated)	·	4.6	3%	-2%	15	5	12%[15.4 µM]
O=C(Nc1ccccc1C(=O)Nc1ccc(Br)cn1)c1cccc([N+](=O)[O-])c1	0.4%	0.0	1%	-23%	5	·	-38%[inhibitor]
O=[N+]([O-])/C(C(=C(Cl)Cl)N1CCOCC1)=C1\NCCO1	-0.1%	2.4	3%	-15%	-14	-9	-1%[15.4 µM]
CC(=O)Nc1ccc(NC(=O)CCn2nnc3ccccc32)cc1	·	1.0	-4%	-13%	-3	-18	6%[15.4 µM]
CCO[C@H]1OC(C(=O)NCc2ccccc2)=C[C@@H](c2ccc3c(c2)OCO3)[C@@H]1CCCO	-0.5%	-7.8	-9%	0%	5	5	·
O=C1C[C@H](c2ccc(O)cc2)Oc2cc(O[C@@H]3O[C@H](CO)[C@@H](O)[C@H](O)[C@H]3O)cc(O[C@@H]3O[C@H](CO)[C@@H](O)[C@H](O)[C@H]3O)c21	-1.9%	·	11%	·	·	5	-11%
Cc1ccccc1N(C(=O)Cn1nnc(-c2cccs2)n1)C(C(=O)NCCC(C)C)c1ccco1 (configuration not stated)	0.1%	4.0	-6%	22%	23	-10	5%
O=C(Nc1ccc2c(c1)OCO2)C(c1ccccc1)N1CCN(C(=O)c2ccco2)CC1 (configuration not stated)	3.0%	-1.1	-1%	7%	-6	-3	-14%
CC(C)(NS(=O)(=O)OCC(Cl)(Cl)Cl)c1ccccc1	-0.1%	2.7	11%	12%	10	6	17%
CC(=O)c1cccc(-n2nnnc2SCC(=O)Nc2cccc(NC(=O)c3ccco3)c2)c1	-1.3%	2.5	-6%	9%	-4	0	-21%
O=C(COC(=O)CNC(=O)C1CCCCC1)Nc1ccccc1OC(F)F	-1.2%	·	-10%	·	·	6	30%
C=CCC[C@@H](Cc1ccc(F)cc1)C(=O)OC[C@H](Cc1c[nH]c2ccccc12)NC(=O)[C@H](CC=C)CC(=O)N(CCO)Cc1ccccc1	-2.9%	·	-21%	·	·	-9	·
CCN(CC)C(=O)[C@H]1CC(CC(=O)NCc2ccco2)C(=O)N2CCc3c([nH]c4ccccc34)[C@]12C (some centres not stated)	-7.5%	·	2%	·	·	-10	·
COc1ccc(C(=O)C2CCCN(C(=O)c3cccc(N4CCCC4=O)c3)C2)cc1OC (configuration not stated)	-7.2%	-1.2	-5%	22%	-1	1	?
CS(=O)(=O)c1ccc2nc(NC(=O)CN3C(=O)C4CC=CCC4C3=O)sc2c1 (configuration not stated)	-2.0%	-1.3	-6%	14%	-1	2	-7%
COc1ccc(NCc2nnc(SCC#N)n2-c2ccccc2OC)cc1	?	-9.1	1%	8%	-9	-1	0%
COc1ccc(S(=O)(=O)N2CCCCC2)cc1NCC(=O)Nc1ccc(C)cc1	·	3.8	-6%	21%	7	-7	-5%[15.4 µM]
COc1ccc(O)c(/C=N/NC(=S)Nc2cccc(S(=O)(=O)N(C)C)c2)c1	?	?	-13%	-8%	1	-3	26%
COc1ccc(NS(=O)(=O)c2ccc(C)c(C(=O)NCc3ccccc3CN3CCCC3)c2)cc1	-1.1%	·	·	·	·	4	?
COc1ccc(C(C(=O)NC2CCCCC2)N(Cc2ccco2)C(=O)c2snc(C(N)=O)c2N)cc1 (configuration not stated)	-12%	1.0	-15%	20%	25	-3	-20%[15.4 µM]
Clc1ccc(CSc2nccn2Cc2ccccc2)cc1	-2.8%	-1.1	?	9%	11	-17	-10%
COc1ccc(NC(=O)CSCC(=O)NCc2ccco2)cc1	-5.4%	·	10%	·	-3	7	-8%
Cc1nn(-c2ccccc2)c(Cl)c1C(=O)NCCN(C)C	0.2%	-0.6	6%	9%	0	-2	1%
Cc1cccc(S(=O)(=O)c2c(N)n(-c3ccccc3)c3nc4ccccc4nc23)c1	14µM*	·	-25%	12%	3	-6	25%
Cc1c(Cl)c(C(F)(F)F)nn1CC(=O)NCc1ccco1	1.2%	0.7	1%	-3%	-21	-1	-18%
O=C(Nc1ccccc1C(F)(F)F)c1cc(S(=O)(=O)N2CCC3(CC2)OCCO3)ccc1F	-1.2%	1.8	3%	0%	-8	4	-7%
Cc1ncc(CSCC(=O)Nc2cc(C(F)(F)F)ccc2Cl)c(CO)c1O	·	0.9	-6%	10%	-4	0	-2%
COc1cccc(C(=O)Nc2ccncc2)c1OC	-1.2%	3.0	-2%	12%	5	·	1%
CCOC(=O)[C@@H]1[C@H]2COc3ccc(Br)cc3[C@H]2N2C(=O)N(c3cccc(F)c3)C(=O)[C@]12C	0.9%	1.8	-3%	11%	18	·	-1%
CC(NC(=O)c1cc(COc2ccccc2)on1)c1nccs1 (configuration not stated)	·	1.9	6%	4%	5	-2	25%
CCN(C(=O)CN1C=NS(=O)(=O)c2ccccc21)c1ccccc1	-1.0%	5.7	4%	12%	-7	10	4%
O=C(c1ccc(COc2ccccc2Cl)o1)N1CCN(Cc2ccc3c(c2)OCO3)CC1	-3.3%	8.2&-0.7	-16%&-10%	?	-8&-1	-27&-29	-4%&7%
CCCCc1cc(=O)oc2cc(C)cc(O)c12	-4.1%	8.2	-23%	14%	-8	5	16%
COc1cc(C(=O)Nc2cccc(C)n2)ccc1OCC(=O)N1CCOCC1	-0.8%	·	-4%	·	-9	-5	-9%
CCC(C)NC(=O)Cn1c(=O)n(CCCCCC(=O)Nc2ccccc2)c(=O)c2sccc21 (configuration not stated)	-0.6%&-1.8%	-1.1	-8%	-4%	-2	3	-7%
CNNC(=S)NC1CC2CC1C1C=CCC21 (configuration not stated)	-0.4%	-2.6	-3%	-16%	-9	5	0%
COc1ccc(NC(=O)CN2CCN(S(=O)(=O)c3ccc(C(C)C)cc3)CC2)cc1OC	1.1%	-0.1	-6%	0%	?	1	21%
c1ccc(Cn2ncc3c(N4CCCCC4)ncnc32)cc1	-1.1%	-0.3	16%	3%	6	13	?
CCCCC(=O)Nc1nc2c(s1)COc1ccccc1-2	0.2%	0.7	-3%	-1%	25	6	31%
CCC(C)(C)C1CCC(=NNS(=O)(=O)c2ccc(C)c([N+](=O)[O-])c2)CC1 (configuration not stated)	3.0%	-1.6	6%	3%	13	0	-3%
CC(C)(CO)NC(=O)C(c1ccccc1)c1ccccc1	-1.2%	1.5	-4%	11%	1	-2	-4%
COc1ccc(CC(=O)OCn2nnc3ccccc3c2=O)cc1OC	0.6%	4.0	-2%	3%	-4	·	10%
